Six1-Eya2 inh: Six1/Eya2 interaction inhibition. Q15475+O00167. AlphaScreen GST-Six1/His-Eya2 binding, biochemical; stronger effect = lower value; control for the full effect not named in the record. activity change, % (concentration not given with the values). 0.56% of 360,000 active. AID 651725; in the data active = activity change below about -65%; inconclusive = about -30% to -65%; inactive = above about -30%; also: % is scaled to controls: 0 for no effect and ±100 for the full control effect
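Six1/Eya2 binding was read as AlphaScreen signal after compounds were pinned into GST-Six1 plus His-tagged Eya2 (5X stock 250/500 nM) in pH 8.0 Tris/NaCl/TCEP buffer, beads added, then incubated 1 h, 37 C, dark.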
TRPML1 ag: agonists of human TRPML1 channel; TRPML1-expressing cells, Ca2+ dye fluorescence, FDSS; host cell line not named in the record; reference of the full effect not given here; 0.12% of 410,000 active; activation, % (no concentration beside the values); in the data active = activation above about 50%; inconclusive = about 30% to 50%; inactive = below about 30%; also: 0% is about no effect; the text of the record puts the active cut at 80%
Target sequence (Q9GZU1 whole entry, looked up): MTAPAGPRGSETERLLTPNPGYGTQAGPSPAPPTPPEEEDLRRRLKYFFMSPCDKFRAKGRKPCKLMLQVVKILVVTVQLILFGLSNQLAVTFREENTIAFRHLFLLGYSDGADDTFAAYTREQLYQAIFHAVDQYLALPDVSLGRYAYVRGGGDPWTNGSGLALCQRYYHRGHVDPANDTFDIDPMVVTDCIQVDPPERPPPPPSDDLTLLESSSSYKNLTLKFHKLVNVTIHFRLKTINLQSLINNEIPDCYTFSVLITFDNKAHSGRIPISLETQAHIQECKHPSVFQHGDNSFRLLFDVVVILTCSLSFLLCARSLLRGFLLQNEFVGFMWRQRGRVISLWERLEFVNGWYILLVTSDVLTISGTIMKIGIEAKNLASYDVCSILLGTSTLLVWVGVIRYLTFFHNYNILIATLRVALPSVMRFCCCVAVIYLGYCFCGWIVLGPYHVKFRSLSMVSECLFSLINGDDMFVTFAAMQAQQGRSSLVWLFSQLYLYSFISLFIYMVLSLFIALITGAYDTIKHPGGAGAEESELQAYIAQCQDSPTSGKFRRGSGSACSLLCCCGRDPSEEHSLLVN
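Cells: TRPML1-DL, 1X Tet inducer, ~16 h at 37 degrees C/5% CO2. Dye: ABD Ca8 no-wash + quencher, 45-90 min RT. Read: 10 s baseline, compound add, 110 s agonist phase; 54-4 EC80 (4uM final), 110 s antagonist phase.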
CtBP-E1A blk: CtBP/E1A binding inhibition; 0.49% of 340,000 active; AlphaScreen GST-E1A/His-CtBP binding, 1536-well; stronger effect = lower value; control for the full effect not named in the record; activity change, % (test concentration not listed); in the data active means activity change below about -65%; inconclusive means about -30% to -65%; inactive means above about -30%; also: % is scaled to controls: 0 for no effect and ±100 for the full control effect; compound concentration not given in the record
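Protein mix (5X: 125 nM each GST-E1A, His-CtBP) was incubated with pinned compound 2 h at 37 deg C in dark, in 50 mM Tris pH 8.0 buffer with 300 mM NaCl. Glutathione donor and nickel acceptor beads followed; AlphaScreen signal read after 1 h.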
PINK1 modulator: modulators of PINK1 expression; PINK1 immunofluorescence, high-content cytometry, 24 h; Potency, µM (series often up to 76.6 µM), for the others: at the highest dose activation (PINK1 increase), usual class: activators; 0.2% of 410,000 active; AID 624263; active = well fitted activation curve with a large enough effect; inconclusive = small, poorly fitted or top-dose-only effect; inactive = flat fitted curve, though single readings scatter; cell line not stated here;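 also: potency is read from the fitted curve at half-maximal effect; % of control where 0% means no effect; nearly all actives have a fitted effect of over 65% in size; a mitochondrial uncoupler was the plate control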
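A stable cell line was treated with compounds at 5 concentrations for 24 hours, with CCCP as control. PINK1 levels and mitochondrial localization were measured by immunofluorescence with mitochondrial, cell and nuclear markers after fixation, read by laser-scanning cytometry.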
TRPML1 inh: human mucolipin-1 channel inhibition; TRPML1-inducible cells, Ca2+ dye fluorescence, FDSS; stronger effect = lower value; inhibition of EC80 agonist-evoked calcium signal; AID 624415; 0.02% of 390,000 active; activity change, negative = inhibition, % (no concentration beside the values); Q9GZU1; in the data active means activity change below about -50%; inconclusive means about -30% to -50%; inactive means above about -30%;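 also: stimulus is agonist 54-4 at its EC80 concentration; % is scaled to controls: 0 for no effect and ±100 for the full control effect; compound concentration not given in the record; the text of the record puts the active cut at -80%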
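Calcium fluorescence in TRPML1-DL cells induced overnight with Tet: a 110 s read after compound pin addition, then a 110 s antagonist read after challenge with 54-4 at 4 uM final (EC80).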
D2 ag: activates the human D2 dopamine receptor; P14416; DiscoveRx PathHunter D2 beta-arrestin, luminescence, 90 min; 100% = 57 uM dopamine signal; activation, % (no concentration beside the values); 0.084% of 360,000 active; AID 624465; in the data active = activation above about 40%; inconclusive = about 15% to 40%; inactive = below about 15%; also: compound concentration not given in the record; the text of the record calls up to 30% inactive
Target sequence (P14416 whole entry, looked up): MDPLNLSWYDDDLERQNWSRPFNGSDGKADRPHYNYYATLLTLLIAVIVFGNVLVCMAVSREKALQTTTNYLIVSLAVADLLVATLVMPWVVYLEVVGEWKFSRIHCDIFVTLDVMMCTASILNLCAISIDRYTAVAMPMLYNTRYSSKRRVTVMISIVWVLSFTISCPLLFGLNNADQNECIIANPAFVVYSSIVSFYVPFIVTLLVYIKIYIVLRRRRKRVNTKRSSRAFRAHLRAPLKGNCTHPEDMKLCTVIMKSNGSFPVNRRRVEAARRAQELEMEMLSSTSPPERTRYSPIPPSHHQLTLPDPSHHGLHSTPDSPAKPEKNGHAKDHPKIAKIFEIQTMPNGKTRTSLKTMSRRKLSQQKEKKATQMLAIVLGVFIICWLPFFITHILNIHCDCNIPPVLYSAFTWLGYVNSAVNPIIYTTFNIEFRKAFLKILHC
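DiscoveRx PathHunter D2 beta-arrestin cells (2,100/well) attached overnight, then compound-stimulated 90 min at 37 C in HBSS/10 mM HEPES/0.1% Tween-20 buffer; beta-galactosidase complementation read by luminescence after 1 h at ambient temperature. Dopamine 57 uM final (EC100) as control.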
The depositor's hits bear a star; u = inconclusive; x = no result given; [ ] = another dose, or the depositor's remark.

SMILES | Six1-Eya2 inh | TRPML1 ag | CtBP-E1A blk | PINK1 modulator | TRPML1 inh | D2 ag
CCOc1ccc(NC(=S)N2c3ccccc3CC2C)cc1 (stereo unspecified) | -6 | -0.5 | -5 | -0.2% | 28 | 1.4
Cc1c(C(=O)NCc2ccc(Cl)c(Cl)c2)sc(=O)n1Cc1ccc(C(=O)N(C)C)cc1 | -12 | -0.4 | -7 | 0.0% | x | 9.6
COc1ccc(CNC(=O)c2c(O)nc3c(C)cccn3c2=O)cc1 | x | 0.2 | x | -3.1% | -27 | x
Cc1nc2ccc(NC(=O)Cc3ccc(Br)cc3)cc2s1 | 5 | 3.4 | -4 | 15% | 7 | -0.4
Cc1ccc2oc(C(=O)Nc3ccc(S(=O)(=O)Nc4nc(C)cc(C)n4)cc3)cc(=O)c2c1 | x | -0.3 | x | 1.2% | 2 | x
CNS(=O)(=O)c1ccc(NCC2COc3ccccc3O2)c([N+](=O)[O-])c1 (stereo unspecified) | -23 | 0.5 | -22 | 2.0% | -3 | -3.3
COC(=O)c1c(NC(=O)C2C3C=CC(CC3)C2C(=O)O)sc(C)c1C (stereo unspecified) | 4 | 0.0 | 1 | 0.0% | -18 | -5.7
FC(F)(F)c1cc(Cl)c2nnc(-c3ccccn3)n2c1 | 0 | -0.1 | x | 0.0% | -9 | 6.5
O=C(O)CN1C(=O)/C(=C\c2cn(CC(=O)N3CCOCC3)c3ccccc23)SC1=S | -2 | 12 | -2 | -0.5% | -4 | -2.9
COC(=O)CSc1nc(COc2ccccc2)nc2ccccc12 | 1 | x | x | 0.6% | x | 2.2
CC(C)CCNC(=O)Nc1cc(C(=O)NCc2cccc(F)c2)ccc1N1CCCC1 | x | 0.1 | x | -0.4% | -3 | x
O=C(Nc1cccc(F)c1)c1cnc2sc(N3CCCC3)nn2c1=O | x | 0.1 | x | 1.3% | 15 | x
COc1ccc(Cl)cc1S(=O)(=O)NC(C)C(=O)NCc1ccncc1 (stereo unspecified) | 2 | -1.2 | 16 | 1.7% | -7 | -5.1
Cc1cccc(N=C2NC(=O)C(CO)(CO)S2)c1 | 2 | -0.4 | 6 | 0.8% | -1 | 3.1
COC(=O)c1cccc(NC(=O)Nc2ccc(Cl)c(Cl)c2)c1 | 8 | -0.4 | 24 | u | 27 | 4.7

Of the compounds above, 4 contain four or more nitrogen atoms.
SMILES | Six1-Eya2 inh | TRPML1 ag | CtBP-E1A blk | PINK1 modulator | TRPML1 inh | D2 ag
Cc1ccc2oc(C(=O)Nc3ccc(S(=O)(=O)Nc4nc(C)cc(C)n4)cc3)cc(=O)c2c1 | x | -0.3 | x | 1.2% | 2 | x
FC(F)(F)c1cc(Cl)c2nnc(-c3ccccn3)n2c1 | 0 | -0.1 | x | 0.0% | -9 | 6.5
CC(C)CCNC(=O)Nc1cc(C(=O)NCc2cccc(F)c2)ccc1N1CCCC1 | x | 0.1 | x | -0.4% | -3 | x
O=C(Nc1cccc(F)c1)c1cnc2sc(N3CCCC3)nn2c1=O | x | 0.1 | x | 1.3% | 15 | x

(continued)
SMILES | Six1-Eya2 inh | TRPML1 ag | CtBP-E1A blk | PINK1 modulator | TRPML1 inh | D2 ag
COc1ccc(C(O)(CCC(C)C)C(CN2CCOCC2)c2ccccc2)cc1 (stereo unspecified) | -17 | x | -1 | 11% | x | -3.4
Cc1ccc(S(=O)(=O)/N=C(/Nc2cccc(C(=O)O)c2)c2ccccc2)cc1 | 6 | 2.1 | 10 | 0.0% | 4 | -6.4
COc1ccc(N2CCN(C(=O)CSc3nc4[nH]ncc4c(=O)n3-c3cccc4ccccc34)CC2)cc1 | u | 0.4 | -22 | -0.8% | -3 | -0.6
COc1ccccc1OCC#CCSc1ncccn1 | 2 | 0.1 | x | 2.3% | 1 | -2.1
Nc1nc(C2C(=O)CCCC2=O)cs1 | -21 | 0.1 | u | 1.8%[38.3 µM] | -3 | 1.6
Cc1ccc(S(=O)(=O)N2CCOCC2)cc1C(=O)N1CCN(Cc2ccccc2)CC1 | -2 | 1.8 | -2 | -1.3% | -18 | -1.8
COc1ccccc1OCC(O)Cn1nc(C)cc1C (stereo unspecified) | 11 | -0.1 | -5 | 0.6% | -3 | -1.8
Cc1c(Cl)cccc1NC(=S)NCC1COc2ccccc2O1 (stereo unspecified) | 1 | 0.1 | -2 | u | -6 | 1.1
CC(C)C(=O)N1CCN(c2ccccc2NC(=S)NC(=O)/C=C/c2ccco2)CC1 | -2 | 0.6 | 1 | -0.1% | 61 | -0.9
Cc1ccc(C(=O)NN2C(=O)/C(=C/c3cn(C)c4ccccc34)SC2=S)cc1 | 2 | 23 | 1 | -1.4% | 25 | -0.5
COc1cc2c(=O)n(CCC(=O)NCC3CCCO3)c(=O)n(CC(=O)Nc3c(C)cccc3C)c2cc1OC (stereo unspecified) | x | 0.0 | x | 0.3% | -5 | x
Cc1cc(C(=O)CC#N)c(C)n1-c1c(C)n(C)n(-c2ccccc2)c1=O | 3 | 0.0 | -1 | 1.1% | 0 | 0.0
COc1ccc(-c2cc(CNS(=O)(=O)c3ccc(NC(C)=O)cc3)on2)cc1 | 18 | 0.1 | 7 | 0.9% | -7 | -5.0
COc1ccc(Cl)cc1S(=O)(=O)Nc1ccc2[nH]c(=O)[nH]c2c1 | x | 1.1 | x | 0.4% | -4 | x
COc1ccccc1NC(=S)NC(NC(=O)CC(C)C)C(Cl)(Cl)Cl (stereo unspecified) | 5 | 2.1 | 6 | 10% | -13 | 4.6
COc1ccc(N2CCN(C(=O)NC(=O)c3ccccc3)CC2)cc1 | -5 | 0.7 | 0 | -1.6% | -9 | -0.1
Cc1cc(C(=O)N/N=C/c2cc(Br)ccc2OC(=O)c2ccccc2Cl)n[nH]1 | u | -1.2 | 0 | 2.6% | -7 | -3.9
Cc1ccc(-n2ncc3c2CC(C)(C)CC3NC(=O)c2ccncc2)cc1 (stereo unspecified) | -8 | -0.4 | 4 | 3.7% | -15 | 0.0
Cc1ccc(NC(=O)c2ccc(CN3CCc4ccccc4C3)cc2)cc1 | -5 | 2.2 | 0 | 3.9% | 38 | -8.6
COc1ccc2cnn(CCOc3cc(C)ccc3C(C)C)c(=O)c2c1OC | 4 | 0.6 | 15 | 7.6% | 1 | -3.2
O=C(Nc1ccc2ccccc2c1)c1cc(F)c(F)cc1Cl | 12 | -0.5 | 19 | 1.8% | 1 | -0.7
CC1(C)CCCC2=C1CC1C(=O)N(c3ccccc3)C(=O)C1C2 (stereo unspecified) | 14 | -0.6 | 3 | 0.0% | 28 | -1.0
COc1ccc(-c2nn3c(-c4ccc(OC)cc4)nnc3c3ccccc23)cc1 | x | -0.3 | x | 1.1% | 9 | x
Cc1ccc(OCC(=O)N(C)CC(=O)Nc2ccc(Cl)c(C(F)(F)F)c2)c([N+](=O)[O-])n1 | -4 | 0.4 | -26 | 1.7% | -2 | -3.7
COc1cc2[nH]c3c(=O)n(N)c(=O)[nH]c3c2cc1OC | -9 | -0.3 | -21 | 13% | 1 | -1.4
O=[N+]([O-])c1cccc2ccc(/C=C/c3ccc(Cl)cc3)nc12 | -24 | 0.3 | u | 3.3% | -16 | 4.6
COC(=O)Cc1c(C)c2ccc3c(c2oc1=O)CN(Cc1ccc(Cl)cc1)CO3 | x | 2.1 | x | -0.7% | -10 | x
CCC(C)n1c(-c2cccs2)nc2nc3ccccc3nc21 (stereo unspecified) | 11 | 0.5 | 0 | -1.0% | -16 | -4.2
N#Cc1cccc(NC(=O)COC(=O)c2ccccc2C(=O)c2ccc(Cl)c([N+](=O)[O-])c2)c1 | -12 | 1.5 | 5 | -1.9% | -10 | 7.2
COc1ccc(S(=O)(=O)Nc2ccc(NC(C)=O)cc2)cc1 | 0 | 0.0 | 5 | -0.3%[38.3 µM] | u | 0.7

As entered above.
COc1cc2[nH]c3c(=O)n(N)c(=O)[nH]c3c2cc1OC – TRPML1 inh: 1
COc1ccc2cnn(CCOc3cc(C)ccc3C(C)C)c(=O)c2c1OC – PINK1 modulator: 7.6%

Remaining list, next part.
SMILES | Six1-Eya2 inh | TRPML1 ag | CtBP-E1A blk | PINK1 modulator | TRPML1 inh | D2 ag
CCCC[C@@H]1Cc2[nH][nH]c(=O)c2[C@@H](c2ccc(Cl)cc2)O1 | -1 | -0.9 | 4 | 2.7% | x | x
Cc1cc(C)n2c(NCc3ccccc3)c(CC(C)C)nc2n1 | -13 | -0.8 | 0 | -0.1% | x | x
O=C(NCc1cccnc1)NC1CC(=O)N(c2ccc3c(c2)OCCO3)C1 (stereo unspecified) | 1 | -1.1 | 7 | 3.4% | -8 | 1.5
CCCCCC1CC(CC(=O)NC(=S)Nc2ccc([N+](=O)[O-])cc2)C(=O)O1 (stereo unspecified) | -3 | -0.3 | -5 | 3.7% | 11 | -2.2
CC(C)N1CCCC(CNC(=O)CCc2nnc(CCCCc3ccccc3)o2)C1 (stereo unspecified) | -1 | 0.4 | 10 | -1.8% | 21 | -1.2
CCN(CC)CCOC(=O)c1ccc(NC(=O)C(C)NC(=O)C23CC4CC(CC(C4)C2)C3)cc1 (stereo unspecified) | 6 | 0.3 | 0 | 0.2% | 46 | -3.3
Cc1ccc(OCc2occc2C(=O)O)cc1 | 0 | x | -2 | 0.2% | x | -10
Cc1c(Cl)cccc1NS(=O)(=O)c1ccc2c(c1)C1C=CCC1C(c1ccc(C(=O)O)cc1)N2 (stereo unspecified) | u | -0.6 | -2 | -1.5% | -9 | 3.3
Cc1ccc2cc3cc(C(=O)NCCCN4CCCCCC4)oc3nc2c1 | -20 | 0.8 | -13 | -2.3% | 4 | -3.3
Cc1ccc(C(=O)OCC(=O)NC2CCCC(C)C2C)cc1S(=O)(=O)N1CCCCC1 (stereo unspecified) | 4 | 2.4 | 8 | 2.0% | 9 | -0.4
O=C(CSc1ccc(-c2ccccn2)nn1)c1ccc([N+](=O)[O-])cc1 | -67* | -0.9 | -83* | u | 5 | 2.6
COc1cc(/C=N/Nc2ccc(C(=O)O)cc2)cc(OC)c1OC | -10 | -0.6 | 0 | 2.3% | 52 | -1.0
Cc1cc2cc(CNC(=O)c3ccco3)ccc2n1C | -1 | 2.2 | -6 | 3.6% | -2 | -4.0
O=C(c1ccc(F)cc1)N1CCCN(c2nc(-c3ccccc3)ns2)CC1 | -2 | 3.1 | x | 3.2% | 17 | 5.4
Nc1nc2c(c(=O)[nH]1)CN(Cc1ccccc1)CC2 | 3 | -0.3 | 6 | 1.0% | -21 | 0.6
O=C(Nc1ccc(C(=O)OCc2cc(=O)n3nc(C4CC4)sc3n2)cc1)c1cccc(F)c1 | x | -1.2 | x | 0.4% | -17 | x
COc1ccc(NC(=O)c2cc(-c3cc(F)ccc3OC)n[nH]2)cc1OC | -18 | -0.8 | -19 | 2.8% | x | -2.2
CC1=C(/C=C/C(C)=C/C=C/C(C)=C\C(=O)O)C(C)(C)CCC1 | 5 | 0.5 | -25 | 1.4% | 20 | -1.1
C=CCNC(=O)Cc1c(OC)ccc2cc(Br)ccc12 | -24 | 0.3 | 0 | -1.1% | -13 | -4.8
Cc1ccccc1NC(=O)CNC(=O)c1ccc(C(F)(F)F)cc1 | 0 | -0.9 | 0 | -2.0% | -4 | -3.4

Screens as filed in PubChem BioAssay.
